High-throughput results: PubChem BioAssay, several laboratories
UUG fidelity: modulators of yeast start codon fidelity, primary screen, whole organism, S. cerevisiae, single point, plate reader | S. cerevisiae UUG-firefly luciferase reporter, luminescence/redox ratio | activity score, % at 18.7 µM | actives 0.13% (n = 350,000) | AID 602363, 2012;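 active = replicate mean at a twofold rise or more, about +100% in these data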;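 also: firefly luciferase made from a UUG start codon reports start codon fidelity; reporter light over untreated wells divided by growth signal over untreated wells; some hits fall short of that in this replicate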
Env fusion inh: inhibitors of HIV-1 Env-driven cell-cell fusion, primary screen, HeLa-JRFL effector, CEM21 target cells, luciferase; inhibition, % at 12.3 µM; actives 1.1% (n = 360,000);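 active = mean replicate inhibition score of at least 50 and every replicate individually at or above 50; inconclusive = only one of the two criteria met; inactive = mean below 50 and not all replicates reaching 50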;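 also: 0% = plate neutral controls and 100% = maraviroc near 300 nM; one replicate is shown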
eIF4H inh: human eIF4H binding inhibitors, primary screen, translation initiation inhibitor project, biochemical, uHTS, fluorescence polarization. Eukaryotic translation initiation factor 4H (Homo sapiens), Q15056. eIF4H fluorescence polarization binding assay. inhibition, % at 35 µM. actives 0.94% (n = 290,000). AID 2012, 2009;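 active = 50% or more with normal probe brightness, or confirmed in later tests; inconclusive = above 50% with abnormal brightness, or retests that disagree; inactive = below 50% or failed in later tests; about a fifth of its hits are not listed in these tables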;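 also: calls also rest on retests at 20 µM and on dose response follow-up; 0% = protein and probe with vehicle and 100% = probe without protein; strong numbers were not always called active; many hits fall short of the cut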
PABP FP inh: PABP poly(A) RNA binding inhibitors, primary screen, biochemical, fluorescence polarization, uHTS. Polyadenylate-binding protein 1 (Homo sapiens), P11940. inhibition, % at 35 µM. actives 1% (n = 290,000). AID 2014, 2009;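 active = 50% or more with normal probe brightness, or confirmed in later tests; inconclusive = above 50% with abnormal brightness, or retests that disagree; inactive = below 50% or failed in later tests; about a fifth of its hits are not listed in these tables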;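 also: calls also rest on retests at 20 µM and on dose response follow-up; controls were probe without protein and protein plus probe with vehicle; some compounds called inactive have numbers as strong as hits; many hits fall short of the cut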
CSC inhib: cancer stem cell viability inhibitors, primary screen, luminescence; cancer stem cell-like cells viability; actives 1.1% (n = 300,000); inhibition, % at 7.5 µM;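 active = mean at 75% or more and at least half the replicates too; inconclusive = mean and replicates disagree; tested in HMLE shEcad cells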;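 also: 0% = median of negative and 100% = median of positive control wells; the first replicate is given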
MT1-MMP act inh: blockers of MT1-MMP proenzyme processing, primary screen, HT1080 RFP-PRO-GFP cells, GFP/RFP fluorescence. actives 0.061% (n = 360,000). GFP/RFP ratio change, % at 20 µM. Matrix metalloproteinase-14 (Homo sapiens), P50281. GFP/RFP ratio fluorescence, overnight; percent of plate control window, DMSO zero. AID 651647, 2012;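 active = GFP/RFP ratio change of at least 30% with cell ATP level not reduced by more than half and red fluorescence within 50% of control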; also: strong numbers were not always called active
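Test system: HT1080 RFP-PRO-GFP cells; Benchmarks: DMSO and RFP-L50D-GFP cell wells; Timing: cells overnight before dosing, compound overnight, 37 °C, 5% CO2; Compound: one 20 µM compound dose with 1% DMSO; Read-out: GFP/RFP fluorescence ratio.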
Rce1 inh: yeast Rce1p protease inhibitors, primary screen, biochemical, fluorescence, cell-free homogeneous; yeast membranes, quenched prenylated peptide cleavage fluorescence; calls only; actives 0.27% (n = 290,000); AID 2563, 2010;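 active = fall in fluorescence gain of 50% or more versus controls, with final raw signal at or below 3038400; inconclusive = same 50% fall but final raw signal above 3038400; inactive = fall in fluorescence gain under 50%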;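 also: plate controls were neutral control wells for no effect and wells lacking membranes for full effect; tested at 10 µM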
Target sequence (Q03530 whole entry, looked up): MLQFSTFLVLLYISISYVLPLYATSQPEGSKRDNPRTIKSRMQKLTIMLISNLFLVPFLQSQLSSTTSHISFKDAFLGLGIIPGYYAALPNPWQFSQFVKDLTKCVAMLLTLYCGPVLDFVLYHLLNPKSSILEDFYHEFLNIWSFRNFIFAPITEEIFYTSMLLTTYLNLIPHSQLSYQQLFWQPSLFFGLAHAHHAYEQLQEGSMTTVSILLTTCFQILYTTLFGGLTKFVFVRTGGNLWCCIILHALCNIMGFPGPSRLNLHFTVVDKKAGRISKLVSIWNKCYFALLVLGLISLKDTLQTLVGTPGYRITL
eIF4H inh retest: recorded beside eIF4H inh, whose call it bears; inhibition, %; compound at 20 µM; confirmation average;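 mean of two retest wells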
PABP FP inh retest: recorded beside PABP FP inh, whose call it bears; inhibition, %; compound at 20 µM; confirmation repeats;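 mean of two retest wells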
MT1-MMP act inh RFP: further read-out of MT1-MMP act inh, marked with its call; RFP signal change, %; measured here: RFP expression control read;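 0 = vehicle wells; hits needed this value within 50% of zero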
An asterisk follows results filed as active; i = inactive; ? = inconclusive; . = no result given; & = joins results of further samples.

SMILES	UUG fidelity	Env fusion inh	eIF4H inh	PABP FP inh	CSC inhib	MT1-MMP act inh	MT1-MMP act inh RFP	Rce1 inh	others
COC(=O)c1ccccc1NC(=O)Nc1cc(C)ccn1	.	-22	-12	-1	-6	0	-1	i
O=S(=O)(Cc1ccccc1)Cc1cnc(Cl)s1	32	11	-4	-12	-6	0	-1	i
Cc1ccc(S(=O)(=O)NNC(=O)c2ccncc2)cc1	.	6	-3	8	.	2	7	i
CCN(CC)S(=O)(=O)c1ccc(C(=O)NNC(=O)c2csc(N3CCOCC3)n2)cc1	11	.	.	.	0	-3	-2	i
Cc1nc2nc(C)c(CCC(=O)NCCCN3CCN(c4cccc(Cl)c4)CC3)c(C)n2n1	-2	16&0	-6&2	5&2	7&8	6&4	5&1	i
COc1ccc(C(C)NC(=O)C2CCN(CCCc3ccccc3)CC2)cc1OC (stereo unspecified)	-9	26	.	.	.	2	3	.
COc1ccc(NC(=O)CN(C)C(=O)c2ccccc2OC)cc1	-20	-11	4	4	-3	-1	0	i
COc1ccc2c(c1OC)C(=O)OC2c1c(O)nc(SC)n(-c2ccccc2)c1=O (stereo unspecified)	.	.	4	-2	-13	-2	1	i
Cc1ccc2c(CN3CCN(S(=O)(=O)c4ccccc4C(F)(F)F)CC3)cc(=O)oc2c1	-12	.	.	.	1	-4	-7	.
Oc1ccc(C2=Nn3c(nnc3-c3ccco3)SC2)cc1O	.	.	43	-7	39	4	-9	i

Overlap with the part before: three compounds; new compounds follow.
SMILES	UUG fidelity	Env fusion inh	eIF4H inh	PABP FP inh	CSC inhib	MT1-MMP act inh	MT1-MMP act inh RFP	Rce1 inh	others
COc1ccc2c(c1OC)C(=O)OC2c1c(O)nc(SC)n(-c2ccccc2)c1=O (stereo unspecified)	.	.	4	-2	-13	-2	1	i
Cc1ccc2c(CN3CCN(S(=O)(=O)c4ccccc4C(F)(F)F)CC3)cc(=O)oc2c1	-12	.	.	.	1	-4	-7	.
Oc1ccc(C2=Nn3c(nnc3-c3ccco3)SC2)cc1O	.	.	43	-7	39	4	-9	i
Cc1ccc(N2CCN(S(=O)(=O)c3ccc4c(c3)n(C)c(=O)c(=O)n4C)CC2C)cc1 (stereo unspecified)	-9	.	4	-7	-3	-19	-5	i
Cc1ccc(NC(=O)CSc2nnc(C)n2CC2CCCO2)cc1 (stereo unspecified)	.	7	7	27	-4	-2	-3	.
O=C(NN=C1CCCCCCC1)c1ccccn1	-27	-74	-4	-8	-8	10	2	.
Cc1[nH]c2ccc(OC(F)(F)F)cc2c1CCN1C(=O)c2ccc(C(=O)O)cc2C1=O	-8	9	-8	1	-9	2	-11	i
CCOCCCNC(=O)C1CCCN(S(=O)(=O)c2ccc(-n3cnnn3)cc2)C1 (stereo unspecified)	1	3	-3	-6	-4	-4	-2	i
CC(C)c1nnc(NC(=O)c2cnccn2)s1	-13	-77	11	14	-5	3	8	i
CCOC(=O)c1ccc2c(c1)C1C=CCC1C(C(=O)OCC)N2 (stereo unspecified)	11	-3	30	23	3	-1	1	i
C=CCn1nc(C(=O)OCC)cc1-c1sc(NC(=O)c2ccccc2)nc1C	10	20	.	.	.	-10	-17	.
COCCn1c(-c2ccc(OC)c(OC)c2)nc2ccccc21	-51	.	-2	-14	-11	2	6	i
CC(=O)Nc1ccc(C(=O)CSc2ncn(-c3ccccc3)n2)cc1	-8	.	-6	3	-9	-1	-3	i
CCOc1ccc(S(=O)(=O)Nc2nc3ccccc3nc2N2CCN(C)CC2)cc1	-16	.	0	0	-14	1	4	i
Cc1cc(C(=O)N/N=C/c2ccccn2)c2ccccc2n1	-17	-8	1	9	2	0	4	.
O=C(O)/C(=C\c1ccc(Cl)cc1)c1ccc(F)cc1	.	1	-6	-7	-14	1	4	i
Cc1ccc(S(=O)(=O)c2c(N)n(NC(=O)c3ccco3)c3nc4ccccc4nc23)cc1	31	50	8	19	-9	0	0	i
COc1ccccc1N1CCN(/N=C/c2cc([N+](=O)[O-])ccc2Cl)CC1	.	0	3	?	21	4	5	i
COc1ccccc1Oc1ccc(NC(=O)c2ccc(Cl)cc2)cc1	.	20	-2	1	-18	2	-13	i
O=C(NNS(=O)(=O)c1ccc(Cl)cc1)c1cc(-c2ccccc2)n[nH]1	-4	-3	27	-6	9	0	0	i
Cc1cccc(C)c1OCC(N)C(C)C (stereo unspecified)	-10	-17	.	.	.	1	1	.
Cc1cccc(NC(=O)C2CCCN(S(=O)(=O)c3ccc(-n4cnnn4)cc3)C2)c1 (stereo unspecified)	-28	-4	-5	-1	-4	-2	-6	i
COc1cccc(N2CCN(C3OC(=O)c4ccccc43)CC2)c1 (stereo unspecified)	-8	.	4	-10	7	-1	-3	i

The final 2 compounds of the part before open the next one:
SMILES	UUG fidelity	Env fusion inh	eIF4H inh	PABP FP inh	CSC inhib	MT1-MMP act inh	MT1-MMP act inh RFP	Rce1 inh	others
Cc1cccc(NC(=O)C2CCCN(S(=O)(=O)c3ccc(-n4cnnn4)cc3)C2)c1 (stereo unspecified)	-28	-4	-5	-1	-4	-2	-6	i
COc1cccc(N2CCN(C3OC(=O)c4ccccc43)CC2)c1 (stereo unspecified)	-8	.	4	-10	7	-1	-3	i
C#CCOC(=O)Nc1cc(C)n(-c2ccccc2)n1	.	-3	-19	-1	-6	-1	2	.
CCOC(=O)c1ccc2[nH]c3c(c2c1)CCCC3C(=O)OCC (stereo unspecified)	-19	.	-13	3	4	9	4	i
CC(C)(C)c1nn(-c2ccccc2)c2[nH]c(=O)c(CNCc3ccc4c(c3)OCO4)cc12	-10	.	-2	-4	.	24	4	i
Cc1ccc(NC(=O)CCC2CC(C)(C)OC2=O)cc1 (stereo unspecified)	.	-3	-14	-3	-1	-1	1	i
COc1ccc(CCNC(=O)CC2SC(=NCCc3ccccc3)NC2=O)cc1OC (stereo unspecified)	.	-9	-2	-10	11	0	2	i
N#CCN1CCC(c2cc(-c3ccco3)n[nH]2)CC1	.	7	86	-14	2	.	.	.	eIF4H inh retest=-6;PABP FP inh retest=11
CCOC(=O)N1CCN(C(=O)C2CCCN(Cc3nc(-c4ccc(Cl)cc4)oc3C)C2)CC1 (stereo unspecified)	9	33	2	1	1	-3	-29	i
CC1(C(=O)NS(=O)(=O)C2CC2)CCN(C(=O)COc2ccc(Cl)cc2Cl)C1 (stereo unspecified)	-22	-9	.	.	.	3	5	.
Cc1c(NC(=O)CN2CCN(c3ccc(O)cc3)CC2)c(=O)n(-c2ccccc2)n1C	.	15	20	8	1	-5	-1	i
CN1CCN(c2nc3c(c(=O)[nH]c(=O)n3C)n2CCOc2ccccc2)CC1	.	.	4	-6	.	-5	0	i
Cc1c(O)ccc2c(CC(=O)N[C@@H](Cc3c[nH]c4ccccc34)C(=O)O)cc(=O)oc12	-10	0	86	4	0	-3	0	i	eIF4H inh retest=12;PABP FP inh retest=1
Cc1ccccc1NC(=O)C1CCC(C)(C(=O)O)C1(C)C (stereo unspecified)	-19	.	4	-8	-14	0	2	i
CCOC(=O)c1ccc(-n2c(C)nc3c(cnn3-c3ccccc3Cl)c2=O)cc1	0	13	8	0	13	4	-3	i
CC(=O)Nc1nonc1NC(=O)CSC1=NCCS1	15	.	3	5	-4	-1	5	i
Cc1oc(-c2ccccc2Cl)nc1CN1CCCCC1c1cccnc1 (stereo unspecified)	.	11	-5	-11	-8	-12	1	i
O=C(NC1C=CS(=O)(=O)C1)c1ccccc1 (stereo unspecified)	.	-34	-8	1	-9	4	2	i
Cc1ccc(C)c(N2CCN(C(=O)CN3C(=S)NC(C)(C)CC3C)CC2)c1 (stereo unspecified)	.	12	-7	-15	-4	3	-3	.
Cc1ccc(C)c(N2CCN(S(=O)(=O)c3ccc4c(c3)NC(=O)CO4)CC2)c1	-8	-10	-1	6	.	0	-3	i
COc1ccc2cc(C(=O)C3CCCN(C(=O)/C=C/c4ccccn4)C3)ccc2c1 (stereo unspecified)	6	3	-1	3	-1	2	-5	i
CCOCCCNc1ccc(-c2ccccc2)nn1	9	.	10	1	-1	5	3	i

Ordered by length of the SMILES (highest first): part of the list above.
SMILES	UUG fidelity	Env fusion inh	eIF4H inh	PABP FP inh	CSC inhib	MT1-MMP act inh	MT1-MMP act inh RFP	Rce1 inh	others
COc1ccc2cc(C(=O)C3CCCN(C(=O)/C=C/c4ccccn4)C3)ccc2c1 (stereo unspecified)	6	3	-1	3	-1	2	-5	i
Cc1ccc(C)c(N2CCN(C(=O)CN3C(=S)NC(C)(C)CC3C)CC2)c1 (stereo unspecified)	.	12	-7	-15	-4	3	-3	.
Cc1oc(-c2ccccc2Cl)nc1CN1CCCCC1c1cccnc1 (stereo unspecified)	.	11	-5	-11	-8	-12	1	i
O=C(NC1C=CS(=O)(=O)C1)c1ccccc1 (stereo unspecified)	.	-34	-8	1	-9	4	2	i
CCOCCCNc1ccc(-c2ccccc2)nn1	9	.	10	1	-1	5	3	i

Further records:
SMILES	UUG fidelity	Env fusion inh	eIF4H inh	PABP FP inh	CSC inhib	MT1-MMP act inh	MT1-MMP act inh RFP	Rce1 inh	others
CCc1nnc(NS(=O)(=O)c2ccc(N=Cc3c(C)[nH]n(-c4ccc(C)cc4)c3=O)cc2)s1	-6	.	7	19	-7	9	1	i
O=C(Nc1ccccc1C(=O)OCc1nnc(-c2ccccc2)o1)c1ccco1	.	-17	-14	-9	-1	0	0	i
Cc1cccc(NC(=O)CSc2ncnc3sc(C)c(C)c23)n1	-3	8	-6	30	-15	-1	1	i
Cc1ccc(S(=O)(=O)N2CCN(CCOc3c(Cl)cccc3Cl)CC2)cc1C	2	2	.	.	.	-2	-1	.
O=C(CNCc1ccc(F)cc1)Nc1ccccc1[N+](=O)[O-]	.	1	-9	2	-1	4	-1	i
Clc1ccc2nc(-c3cccc(Br)c3)c(Cc3ccccc3)n2c1	-15	-118	.	.	.	-3	0	.
COc1ccc(-c2ccnc3c(C(=O)O)cnn23)cc1	.	-2	-11	-1	-12	1	5	i
CC(OC(=O)c1ccc(-n2cnnn2)cc1)C(=O)Nc1ccccc1[N+](=O)[O-] (stereo unspecified)	-4	.	.	.	-11	2	0	.
COc1ccc(-n2c(SCC(=O)Nc3cc(C)on3)nc3c(c2=O)SCC3)cc1	-6	-15	4	3	.	-1	1	i
O=C(COC(=O)c1n[nH]c2ccccc12)NC1CCCCC1	-7	-23	.	.	-13	1	-3	.
CC(=O)Nc1cccc(-c2nc3ccccc3o2)c1	-4	-5	-9	0	-12	1	3	i
Cc1ccc(C(=O)CNc2ccccc2C)cc1	-2	3	1	7	2	5	5	i
Cc1ccccc1C(=O)NC(=S)NCC(=O)c1ccccc1	-8	-50	-10	-15	-3	9	-2	i
COc1ccccc1-c1cccc([C@@H]2C[C@H]3[C@H](CON3C)CN2C(=O)CCc2ccccc2)c1	-8	4	.	.	.	-2	-2	.
CC(=O)c1ccc(NC(=S)Nc2cccc(Cl)c2C)cc1	-17	-5	4	2	6	-2	5	i
Cc1noc(NS(=O)(=O)c2ccc(NC(=O)c3cc(S(=O)(=O)N(C)c4ccccc4)ccc3Cl)cc2)c1C	-4	-9	.	.	.	0	1	.

Some of the compounds tested; count on the stated rates, not on these rows.
